Screening results: PubChem, Broad Institute
Vaccinia inh – blocks a specific stage of Vaccinia orthopoxvirus infection; Vaccinia-infected cells, mCherry/Venus stage reporter fluorescence; hits give low values; some inactives read as strong as hits; activity change (mCherry), % (concentration not given with the values); actives 0.01% (n = 89,000);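 active means mCherry past -33% and 40 or more points under the early reporter, replicates agreeing; inconclusive means past -33% without that gap or agreement; tested in A549 cells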;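 further: scaled between vehicle wells and reference inhibitor wells; 23 nL library stock went into each well; one replicate is shown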
Vaccinia inh Venus – also measured in Vaccinia inh; calls as there; activity change (Venus), %; measured here: Venus reporter, other viral stage;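 negative = less Venus signal; first of two replicates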
Active calls of the source: *; ? = inconclusive; / = not tested or not shown.

SMILES	Vaccinia inh	Vaccinia inh Venus
O=C([C@H]1N[C@H]2c3ccc(C4=CCCCC4)c(=O)n3C[C@H]2[C@@H]1CO)N1CCC(Cc2ccccc2)CC1	-14.0	2.9
CC(C)CC#Cc1ccc2c(c1)O[C@H](CN(C)C(=O)CC1CC1)[C@@H](C)CN([C@@H](C)CO)S2(=O)=O	?	/
CC(C)NC(=O)N(C)C[C@H]1Oc2ccc(NC(=O)CCCCCC(=O)Nc3ccccc3N)cc2CC(=O)N([C@@H](C)CO)C[C@H]1C	17.0	-4.0
CNC[C@H]1Oc2ccc(NC(=O)Nc3ccccc3)cc2CC(=O)N([C@H](C)CO)C[C@@H]1C	12.1	4.2
N#Cc1cccc(-c2ccc([C@H]3[C@@H](CO)N4CCCCN(S(=O)(=O)c5ccccc5)C[C@H]34)cc2)c1	?	/
CO[C@@H]1CN(C)C(=O)c2cc(NC(C)=O)ccc2OC[C@@H](C)N(CCC(F)(F)F)C[C@H]1C	-20.0	-6.2
O=C(C[C@@H]1CC[C@@H](NC(=O)c2ccncc2)[C@@H](CO)O1)NCC1CCCCC1	9.3	5.1
C[C@H]1CN([C@@H](C)CO)C(=O)c2cccc(NC(=O)C3CCOCC3)c2O[C@@H]1CN(C)C(=O)Nc1cccc2ccccc12	12.9	9.0
C[C@@H]1CN([C@@H](C)CO)C(=O)c2cc(C#Cc3ccccc3F)cnc2O[C@@H]1CN(C)C(=O)C1CCCCC1	?	/
O=C(CCN1CCCCC1)N[C@@H]1CC[C@H](CCNS(=O)(=O)c2ccccc2)O[C@@H]1CO	0.7	-1.0
COCCNC(=O)C[C@@H]1C[C@H]2c3cc(NC(=O)C4CCOCC4)ccc3O[C@H]2[C@@H](CO)O1	6.0	-0.7
CC(C)NC(=O)N1CC(=O)N2[C@H](CO)[C@@H](c3ccc(/C=C/c4ccccc4)cc3)[C@H]2C1	?	/
COc1ccc(-c2ccc3c(c2)[C@H]2[C@H](CCN2C(=O)CN2CCOCC2)[C@H](CO)N3)cc1	-23.9	-16.7
C/C=C/c1ccc2c(c1)O[C@@H](CN(C)C(=O)c1cccnc1)[C@@H](C)CN([C@@H](C)CO)S2(=O)=O	4.3	0.7
C[C@H](CO)N1C[C@H](C)[C@@H](CN(C)Cc2ccc(C(F)(F)F)cc2)Oc2ccc(NS(=O)(=O)c3cn(C)cn3)cc2CC1=O	-8.4	-2.8
CO[C@@H]1CN(C)C(=O)c2cc(NC(=O)C3CCC3)ccc2OC[C@@H](C)N(CC2CCCCC2)C[C@@H]1C	-5.2	-3.9
C[C@@H]1CN([C@H](C)CO)C(=O)c2cc(NC(=O)C3CC3)ccc2O[C@H]1CN(C)Cc1ccc(-c2ccccc2)cc1	-18.3	-8.2
C[C@@H](NC(=O)C[C@H]1CC[C@@H]2[C@H](COC[C@H](O)CN2Cc2cc(F)ccc2F)O1)c1ccccc1	2.7	1.4
CC(C)NC(=O)N(C)C[C@@H]1Oc2ccc(NC(=O)Nc3ccccc3)cc2C(=O)N([C@@H](C)CO)C[C@H]1C	-0.4	2.6
Cc1noc(C)c1S(=O)(=O)Nc1ccc2c(c1)C(=O)N([C@@H](C)CO)C[C@@H](C)[C@H](CN(C)C(=O)NC1CCCCC1)OCCCC[C@@H](C)O2	-11.6	-15.0
C[C@@H]1CCCCO[C@H](CN(C)C)[C@H](C)CN([C@@H](C)CO)C(=O)c2cc(NS(=O)(=O)c3cn(C)cn3)ccc2O1	11.2	-1.8
CCCNC(=O)C[C@H]1CC[C@H]2[C@H](COc3ccc(NC(=O)Nc4c(C)noc4C)cc3C(=O)N2C)O1	-2.4	9.6
O=C(C[C@H]1CC[C@H]2[C@@H](COC[C@@H](O)CN2S(=O)(=O)c2cccc(Cl)c2)O1)N1CCCCC1	-9.0	0.9
COc1ccc(S(=O)(=O)Nc2ccc3c(c2)C(=O)N([C@H](C)CO)C[C@H](C)[C@H](CN(C)C(=O)c2ccncc2)OCCCC[C@@H](C)O3)cc1	9.4	4.9
CN(C)C(=O)c1ccc(-c2ccc([C@H]3[C@@H](CO)N4CCCCN(S(C)(=O)=O)C[C@H]34)cc2)cc1	39.6	12.4
CCCC#Cc1ccc2c(c1)O[C@@H](CN(C)C(=O)Nc1ccc(OC)cc1)[C@@H](C)CN([C@@H](C)CO)S2(=O)=O	?	/
O=C(O)C[C@H]1CC[C@@H](NC(=O)CCN2CCCCC2)[C@H](CO)O1	-6.8	-8.6
C[C@H]1CN([C@@H](C)CO)S(=O)(=O)c2ccc(Br)cc2O[C@H]1CN(C)C(=O)CCN1CCCCC1	-29.6	-14.9
COCC#Cc1ccc([C@H]2[C@H]3CN(Cc4ccncc4)CCCCN3[C@H]2CO)cc1	1.3	-2.7
C[C@@H]1CN([C@@H](C)CO)S(=O)(=O)c2ccc(C#CC3CC3)cc2O[C@H]1CN(C)Cc1ccncc1	?	/
N#C[C@@H]1[C@H](c2ccc(C3=CCCC3)cc2)[C@@H](CO)N1C(=O)NC1CCCC1	15.5	5.9
COc1ccc(S(=O)(=O)Nc2ccc3c(c2)C(=O)N([C@H](C)CO)C[C@H](C)[C@H](CN(C)Cc2ccc(Cl)c(Cl)c2)O3)cc1	-32.0	-21.7
CO[C@H]1CN(C)C(=O)c2ccc(NC(=O)C3CC3)cc2OC[C@@H](C)N(Cc2cccnc2)C[C@@H]1C	3.1	4.8
COCC(=O)N1CC2(CCN(Cc3nccs3)CC2)c2c(n(C)c3cc(OC)ccc23)[C@@H]1CO	-5.7	-9.3
C[C@@H]1CN([C@H](C)CO)C(=O)c2cc(C#CC3(O)CCCC3)cnc2O[C@@H]1CN(C)Cc1ccncc1	15.5	8.4
C[C@@H]1CN([C@H](C)CO)C(=O)c2cc(NC(=O)C3CCCCC3)ccc2O[C@@H]1CN(C)S(=O)(=O)c1ccc(F)cc1	-6.1	-8.8
COCc1cn(CC[C@H]2CC[C@@H](NC(=O)Nc3ccc(Cl)cc3)[C@@H](CO)O2)nn1	18.2	14.1
CCCNC(=O)C[C@H]1CC[C@@H]2[C@@H](COc3ccc(NC(=O)CCC)cc3C(=O)N2C)O1	?	/
C/C=C/c1ccc2c(c1)O[C@@H](CN(C)C(=O)c1cccnc1)[C@H](C)CN([C@@H](C)CO)S2(=O)=O	13.8	0.8
CCN1[C@@H]2c3ccc(/C=C/c4ccccc4)c(=O)n3C[C@H]1[C@H](CO)[C@H]2C(=O)NC1Cc2ccccc2C1	19.2	15.3
CN(C)C(=O)[C@@]1(CCS(=O)(=O)c2ccccc2)N=C(c2ccc(OCCCO)cc2)O[C@H]1c1ccccc1	4.6	10.2
CN(C)Cc1cn(CC[C@@H]2CC[C@H](NC(=O)Nc3ccccc3F)[C@H](CO)O2)nn1	6.1	10.1
N#Cc1ccc(-c2ccc([C@@H]3[C@H](CO)N4C(=O)CN(C(=O)C5CC5)C[C@@H]34)cc2)cc1	?	/
COCC(=O)N1CC2(C1)[C@H](c1ccc(-c3cccc(C)c3)cc1)[C@@H](CO)N2C(=O)C1CC1	-14.1	-9.4
O=C(C[C@@H]1CC[C@@H]2[C@H](COC[C@H](O)CN2CCC(F)(F)F)O1)NCC1CC1	0.8	6.7
CO[C@@H]1CN(C)C(=O)c2ccc(NC(=O)C3CCC3)cc2OC[C@H](C)N(Cc2ccncc2)C[C@@H]1C	-4.7	-3.2
C/C=C/c1cnc2c(c1)C(=O)N([C@@H](C)CO)C[C@H](C)[C@H](CN(C)C(=O)Nc1ccc(F)cc1)O2	21.1	13.5
COc1cccc(NC(=O)N(C)C[C@H]2Oc3cc(C#Cc4ccc(F)cc4)ccc3S(=O)(=O)N([C@@H](C)CO)C[C@H]2C)c1	?	/
COc1cccc(S(=O)(=O)N[C@@H]2CC[C@@H](CCn3cc(-c4ccccc4)nn3)O[C@H]2CO)c1	-9.7	-4.2
C[C@H](O)C#Cc1ccc([C@@H]2[C@@H](CO)N3CCCCN(CC4CCOCC4)C[C@@H]23)cc1	13.0	2.8
COc1ccc(NC(=O)Nc2ccc3c(c2)[C@H]2C[C@H](CC(=O)N(C)C)O[C@@H](CO)[C@H]2O3)cc1	9.8	7.6
O=C(C[C@@H]1CC[C@@H]2[C@H](COC[C@H](O)CN2C(=O)c2ccccc2F)O1)N1CCCCC1	11.2	-1.7
Cc1ccc(S(=O)(=O)N(C)C[C@H]2Oc3c(NS(=O)(=O)c4ccccc4)cccc3C(=O)N([C@H](C)CO)C[C@H]2C)cc1	13.4	-0.3
O=C(C[C@@H]1CC[C@H]2[C@@H](COC[C@@H](O)CN2S(=O)(=O)c2ccccc2)O1)Nc1ccccc1	-4.4	-2.8
CNC[C@@H]1OCCCC[C@@H](C)Oc2ccc(NC(=O)c3ccncc3)cc2C(=O)N([C@H](C)CO)C[C@H]1C	7.1	4.4
C[C@H](CO)N1C[C@H](C)[C@@H](CN(C)C(=O)C2CC2)OCc2ccccc2-c2c(n(C)c3ccccc23)C1=O	15.2	-0.5
C[C@@H]1CN([C@@H](C)CO)C(=O)CCCn2nncc2CO[C@@H]1CN(C)C(=O)Nc1cccc(F)c1	-5.8	16.8
C[C@H](CO)N1C[C@H](C)[C@@H](CN(C)C(=O)Nc2ccccc2)OCCCC[C@H](C)Oc2ccc(NS(=O)(=O)c3ccccc3)cc2C1=O	-17.7	-22.4
C[C@@H]1CN([C@H](C)CO)S(=O)(=O)c2ccc(C3=CCCCC3)cc2O[C@@H]1CN(C)S(C)(=O)=O	-20.1	-15.1
COc1ccc(NC(=O)N(C)C[C@H]2OCCCC[C@H](C)Oc3ccc(NC(=O)Nc4ccc5c(c4)OCO5)cc3C(=O)N([C@@H](C)CO)C[C@@H]2C)cc1	3.3	6.3

The list continues.
SMILES	Vaccinia inh	Vaccinia inh Venus
COc1ccc(S(=O)(=O)Nc2ccc3c(c2)C(=O)N([C@H](C)CO)C[C@@H](C)[C@H](CN(C)C(=O)NC2CCCCC2)OCCCC[C@@H](C)O3)cc1	?	/
COc1ccc(CN(C)C[C@@H]2Oc3ccc(NC(=O)CCCCCC(=O)Nc4ccccc4N)cc3CC(=O)N([C@H](C)CO)C[C@H]2C)cc1	10.5	10.5
C[C@@H]1CCCCO[C@H](CN(C)S(C)(=O)=O)[C@@H](C)CN([C@H](C)CO)C(=O)c2cc(NC(=O)Cc3ccccc3)ccc2O1	-1.4	15.0
C[C@H](CO)N1C[C@H](C)[C@@H](CN(C)Cc2ccccc2F)Oc2ncc(-c3ccccc3F)cc2C1=O	-24.1	-16.9
C[C@H]1CN([C@@H](C)CO)C(=O)c2c(c3ccccc3n2C)-c2ccccc2CO[C@H]1CN(C)S(=O)(=O)c1ccccc1C#N	?	/
CC(=O)N1[C@H](C(=O)NC2CCC2)[C@@H](CO)[C@@H]2Cn3c(ccc(-c4ccc(F)cc4)c3=O)[C@@H]21	15.0	-2.6
C[C@@H]1CN([C@H](C)CO)C(=O)c2cc(NC(=O)CCCN(C)C)ccc2O[C@@H](C)CCCCO[C@H]1CN(C)Cc1ccc(C(F)(F)F)cc1	?	/
CC(=O)N(C)C[C@H]1Oc2cc(C#Cc3ccc(F)cc3)ccc2S(=O)(=O)N([C@H](C)CO)C[C@@H]1C	8.4	2.6
CCCNC(=O)N(C)C[C@@H]1Oc2ncc(C#CC3CC3)cc2C(=O)N([C@H](C)CO)C[C@@H]1C	8.3	7.4
C[C@@H]1CCCCO[C@@H](CN(C)C(=O)Nc2ccc3c(c2)OCO3)[C@@H](C)CN([C@H](C)CO)C(=O)c2cc(NS(C)(=O)=O)ccc2O1	39.9	11.9
O=C(O)C[C@@H]1C[C@@H]2c3cc(NC(=O)C4CCC4)ccc3O[C@@H]2[C@H](CO)O1	-1.5	-0.4
COc1ccc2c3c([nH]c2c1)[C@H](CO)N(Cc1nccs1)CC31CN(C(=O)C2CCCC2)C1	8.5	12.8
CCS(=O)(=O)Nc1ccc2c(c1)C(=O)N(C)C[C@@H](OC)[C@H](C)CN(C(=O)c1ccc3c(c1)OCO3)[C@@H](C)CO2	16.2	10.1
O=C(C[C@@H]1C=C[C@@H](NS(=O)(=O)c2ccc(F)cc2)[C@H](CO)O1)N1CCC(Cc2ccccc2)CC1	?	/
C[C@H](CO)N1C[C@H](C)[C@H](CN(C)C(=O)Cc2ccncc2)Oc2ncc(C3=CCCC3)cc2C1=O	21.7	21.2
O=C(C[C@H]1CC[C@@H]2[C@H](COC[C@H](O)CN2C(=O)Nc2ccc(C(F)(F)F)cc2)O1)NCC1CCCCC1	?	/
COc1ccc(S(=O)(=O)N(C)C[C@H]2OCc3ccccc3-c3ccccc3C(=O)N([C@@H](C)CO)C[C@@H]2C)cc1	0.7	4.8
C[C@H](CO)N1C[C@H](C)[C@@H](CN(C)C(=O)CCC(F)(F)F)OCCCC[C@H](C)Oc2ccc(NC(=O)C3CCCCC3)cc2C1=O	-33.1	-23.2
C[C@@H]1CN([C@H](C)CO)C(=O)c2cccc(NC(=O)C3CCOCC3)c2O[C@@H]1CN(C)S(=O)(=O)c1cccs1	10.9	5.4
C[C@H]1CN([C@@H](C)CO)C(=O)c2cc(C#CC(C)(C)O)cnc2O[C@@H]1CN(C)Cc1ccccn1	21.2	24.8

Whole records from above. Order of values: Vaccinia inh | Vaccinia inh Venus
C[C@H](CO)N1C[C@H](C)[C@H](CN(C)C(=O)Cc2ccncc2)Oc2ncc(C3=CCCC3)cc2C1=O as listed: 21.7 | 21.2
Cc1ccc(S(=O)(=O)N(C)C[C@H]2Oc3c(NS(=O)(=O)c4ccccc4)cccc3C(=O)N([C@H](C)CO)C[C@H]2C)cc1 as listed: 13.4 | -0.3
C/C=C/c1ccc2c(c1)O[C@@H](CN(C)C(=O)c1cccnc1)[C@H](C)CN([C@@H](C)CO)S2(=O)=O as listed: 13.8 | 0.8
C/C=C/c1cnc2c(c1)C(=O)N([C@@H](C)CO)C[C@H](C)[C@H](CN(C)C(=O)Nc1ccc(F)cc1)O2 as listed: 21.1 | 13.5
CN(C)C(=O)[C@@]1(CCS(=O)(=O)c2ccccc2)N=C(c2ccc(OCCCO)cc2)O[C@H]1c1ccccc1 as listed: 4.6 | 10.2

Not all compounds are listed (hit frequency here may not be typical).
